gsp antagonist: antagonizes gsp, the McCune-Albright syndrome mutation; 340,000 compounds, 0.4% hits; AID 624288; gsp-mutant cells, cAMP HTRF, 30 min; control for the full effect not named in the record; Potency, µM (series often up to 76.9 µM), for the others: at the top dose activity change, negative = inhibition, most hits filed as inhibitors; active = falling curve of any shape with a large fitted effect; inconclusive = falling curve, mostly with a smaller effect; inactive = flat or rising curve; cell line not stated here;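 note: intracellular cAMP measured with PDE inhibitor Ro 20-1724 present during compound exposure; potency is the fitted concentration of half-maximal effect; % is set by controls: 0 for no effect and ±100 for the full control effect; nearly all actives have a fitted effect of over 65% in size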
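G418-selected cells were plated in DMEM/10% FBS for 16-24 h at 37C, then treated with compounds plus the PDE inhibitor […] (300 uM solution added) for 30 min at 37C. Intracellular cAMP was measured by HTRF after 30 min lysis at room temperature.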
Sfp inh: Sfp phosphopantetheinyl transferase inhibition; Biochemical Sfp PPTase activity, qHTS; Q9F4F7; 310,000 compounds, 3.5% hits; Potency, µM, for the others: max response, negative = inhibition, actives largely listed as inhibitors; active = well fitted inhibition curve with a large enough effect; inconclusive = small, poorly fitted or top-dose-only effect, or another doubt; inactive = no such curve, though single readings can be large or run the other way;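 note: the enzyme is Sfp with the accession as filed and its product quenches rhodamine fluorescence; potency is the fitted concentration of half-maximal effect; 0% = enzyme reaction without inhibitor and -100% = no enzyme wells; top concentration of the series not given in the record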
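Fluorescence-quenching assay with 15 nM Sfp, 5 uM rhodamine-CoA and 12.5 uM BHQ-2-labelled ybbR peptide in pH 7.6 Hepes/MgCl2 buffer. Enzyme was pre-incubated with compound for 15 min at room temperature. Rate was taken from the 30-min fluorescence change (525/598 nm).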
Menin MLL FP FL: displaces fluorescein MLL peptide from human menin; AID 1766; Fluorescence polarization, fluorescein-MLL peptide displacement from menin; FP activity change, % at 61.4 µM; 290,000 tested, under 10 active; inconclusive = falling polarisation curve, or a change in total fluorescence; inactive = total fluorescence flat and polarisation flat or rising; no compound was filed as active; the % refers to the polarisation; negative = inhibition;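 note: % of control where 0% means no effect; inhibitors lower the polarisation; unlabelled MLL peptide was the positive control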
TRPV1 potentiator: human TRPV1 potentiation. AID 540277. TRPV1-expressing cells, Fluo-8 calcium influx, capsaicin EC20 potentiation; host cell line not named in the record; control for the full effect not named in the record. 320,000 compounds, 0.02% hits. Q8NER1. potentiation, % at 8.33 µM; active means potentiation above 80%; inconclusive means 30% to 80%; inactive means below 30%; note: 0% is about no effect
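Fluo-8 calcium influx in TRPV1-expressing cells, kinetic read (ex 480/em 520 nm). Compound added and read 3 min for agonist activity, followed by capsaicin at EC20 final and 2 min further read for enhancement.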
TRPML1 inh: inhibitors of human TRPML1 channel | 390,000 compounds, 0.02% hits | Q9GZU1 | TRPML1-inducible cells, Ca2+ dye fluorescence, FDSS; active compounds read low; inhibition of EC80 agonist-evoked calcium signal | activity change, negative = inhibition, % (no concentration beside the values); in the data active means activity change below about -50%; inconclusive means about -30% to -50%; inactive means above about -30%;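 note: stimulus is agonist 54-4 at its EC80 concentration; % is set by controls: 0 for no effect and ±100 for the full control effect; compound concentration not given in the record; the text of the record puts the active cut at -80%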
Target sequence (Q9GZU1 whole entry, looked up): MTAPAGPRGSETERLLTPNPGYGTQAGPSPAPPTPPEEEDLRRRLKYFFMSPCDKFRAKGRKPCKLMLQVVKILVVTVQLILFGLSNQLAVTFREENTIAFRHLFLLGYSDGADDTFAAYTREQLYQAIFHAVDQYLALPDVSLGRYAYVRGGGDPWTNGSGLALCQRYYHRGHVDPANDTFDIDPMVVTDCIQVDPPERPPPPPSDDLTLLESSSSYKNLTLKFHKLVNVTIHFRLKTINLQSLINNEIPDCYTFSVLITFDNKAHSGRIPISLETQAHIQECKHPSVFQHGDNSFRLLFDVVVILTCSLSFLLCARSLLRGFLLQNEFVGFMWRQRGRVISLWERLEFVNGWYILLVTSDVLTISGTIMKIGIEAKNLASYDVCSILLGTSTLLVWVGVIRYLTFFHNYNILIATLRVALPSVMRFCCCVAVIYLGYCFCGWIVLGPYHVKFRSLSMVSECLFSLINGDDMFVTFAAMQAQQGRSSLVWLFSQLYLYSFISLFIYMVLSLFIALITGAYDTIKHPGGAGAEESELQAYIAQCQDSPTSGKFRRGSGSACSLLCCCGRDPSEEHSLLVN
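Tet-induced TRPML1-DL cells loaded with Ca8 no-wash calcium dye were read kinetically on FDSS. Compound addition was followed by EC80 agonist 54-4 (4 uM final); inhibition was read over 110 s.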
ClpP mod: qHTS Assay for Activators of ClpP | ATP-dependent Clp protease proteolytic subunit (Bacillus subtilis (strain 168)), P80244 | purified B. subtilis ClpP, FRET peptide cleavage, 20 min | Potency, µM (top dose mostly 57.5 µM), inactives show at the top dose activity change, negative = active | 340,000 compounds, 1.9% hits | AID 651965, 2013; active = well fitted falling curve with a large enough effect; inconclusive = small, poorly fitted or top-dose-only effect; inactive = no such curve, though single readings can be large or run the other way; note: potency is the fitted concentration of half-maximal effect; the source files actives as falling curves though it sought activators and does not explain the sign; nearly all actives have a fitted effect of over 65% in size; many hits overshoot -100%
Target sequence (P80244 whole entry, looked up): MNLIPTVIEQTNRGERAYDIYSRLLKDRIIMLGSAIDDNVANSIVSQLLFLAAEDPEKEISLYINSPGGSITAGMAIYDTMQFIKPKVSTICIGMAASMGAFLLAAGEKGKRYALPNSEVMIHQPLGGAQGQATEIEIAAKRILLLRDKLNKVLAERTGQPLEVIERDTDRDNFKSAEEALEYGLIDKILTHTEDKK
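ClpP 10 microg/mL final, pH 8 Tris/KCl buffer with BSA, glycerol, Tween-20; compound pinned in; FRET-FV substrate; RT 20 min; Ex320/Em430; ΔFRET vs ADEP 5.8 microM, DMSO, no enzyme.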
gsp agonist: agonists of gsp mutant (McCune-Albright syndrome); 340,000 compounds, 0.13% hits; Potency, µM (series often up to 76.9 µM), without a hit: at the highest dose activation (cAMP increase), hits mostly activators; gsp mutant cells, cAMP HTRF, 30 min; control for the full effect not named in the record; active = well fitted activation curve with a large enough effect; inconclusive = small, poorly fitted or top-dose-only effect, or another doubt; inactive = no such curve, though single readings can be large or run the other way; cell line not stated here;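 note: phosphodiesterase inhibitor Ro 20-1724 added with compounds to block cAMP breakdown; potency is the fitted concentration of half-maximal effect; nearly all actives have a fitted effect of over 60% in size; about a fifth of the inactives were tested at one dose only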
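Cells in DMEM/10% FBS with G418 were pretreated with compounds in DMSO plus […] (300 uM stock) for 30 min at 37C. cAMP was measured by HTRF (cAMP-d2 plus anti-cAMP antibody-K) after 30 min at room temperature.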
Active calls of the source: *; ? = inconclusive; · = no result given; [ ] = another dose, or the depositor's remark.

Results follow in this order: gsp antagonist	Sfp inh	Menin MLL FP FL	TRPV1 potentiator	TRPML1 inh	ClpP mod	gsp agonist
Cc1c(C(=O)NCCCN2CCOCC2)sc2ncnc(N3CCN(c4ccccc4)CC3)c12
    -3%	12%	-0.4	6	33	-2.6%	20%
CCc1ccccc1NC(=O)N[C@@H](C)C(=O)OC
    11%	12%	1.8	-16	-3	1.8%	-6%
CC(=O)N1c2ccccc2C(=O)OC1c1cccnc1 (configuration not stated)
    -6%	12%	-3.1	8	4	28µM*	-41%[inhibitor]
CCCCc1ccc(CC(=O)Nc2cc(S(=O)(=O)N3CCOCC3)ccc2O)cc1
    ?	·	·	10	5	0.9%	-7%
C[C@H]1CN([C@@H](C)CO)C(=O)CCCn2nncc2CO[C@H]1CN(C)C(=O)C1CCCCC1
    ·	·	·	·	11	-0.5%	?
CCOC(=O)CC(/C(C)=N\O)c1ccccc1 (configuration not stated)
    0%	15%	4.7	-15	9	0.3%	29%
Cc1ccc(/C=N/n2c(C)nnc2C)cc1
    11%	13%	1.0	-3	31	-1.6%	-47%[inhibitor]
CN(C(=O)c1ccccc1Cl)c1ccccc1C(=O)NCc1ccccc1
    9%	15%	·	1	16	1.3%	-1%[15.4 µM]
Cc1ccccc1NCc1ccccc1O
    6%	?	3.0	-7	-11	-3.2%	2%
CCCCn1c(/N=C/c2ccc(N(C)C)cc2)nc2ccccc21
    6%	-10%	?	5	13	0.3%	-4%
Cc1cccc(N2CCN(C(=O)C3CCN(S(=O)(=O)c4cccc5cccnc45)CC3)CC2C)c1 (configuration not stated)
    -27%	-4%	4.3	·	11	-2.1%	-81%[inhibitor]
COCCn1c(=O)[nH]c2cc(C(=O)Nc3cc(OC)c(OC)c(OC)c3)ccc2c1=O
    2%	8%	-4.3	4	0	·	-5%
O=C(CSc1nnc(-c2cnccn2)n1Cc1ccco1)Nc1ccc(Br)cc1
    0%	?	3.7	3	6	-2.6%	0%
COc1ccc(NC(=O)CC2CCCC2)cc1S(=O)(=O)N1CCCCC1
    8%	-1%	2.7	-22	-4	0.8%	?
CC(=O)c1c(C)nn(CC(O)COc2ccc3ccccc3c2)c1C (configuration not stated)
    3%	-1%	0.7	7	-3	-0.3%	-9%[15.4 µM]
Cc1[nH]n(-c2cccc(Cl)c2)c(=O)c1C=NCC(C)C
    -37%	2%	-0.8	-5	-16	·	21%[15.4 µM]
COc1ccc(CN2CCNC(=O)C2CC(=O)N(C)Cc2nccs2)c(OC)c1 (configuration not stated)
    9%	17%	-4.3	9	-4	-4.1%	23%
COC(=O)c1ccc(OCC(=O)Nc2ccccc2C(=O)NC2CC2)cc1
    0%	·	·	?	-7	-7.4%	7%
O=C1N[C@H](Cc2ccccc2)COC(=O)[C@H](Cc2ccc(F)cc2)C/C=C\C[C@@H]1CC(=O)N(CCO)Cc1ccccc1
    -13%	·	·	·	-10	3.0%	·
CCC(C(=O)N1CCC(C(N)=O)CC1)n1nc(C)n2c(cc3occc32)c1=O (configuration not stated)
    17%	10%	-4.6	-4	14	-12%	9%
C/C(=N\NC(=O)CSCc1ccc([N+](=O)[O-])cc1)c1ccccc1
    2%	-10%	-3.4	-10	13	-3.3%	9%
O=C(NCCc1ccc(Cl)cc1)/C(=C/c1cccnc1)NC(=O)c1ccccc1
    -9%	-3%	3.0	-3	10	-0.8%	-5%
Clc1nc(NCc2ccco2)nc(N2CCCCC2)n1
    10%	22%	2.4	-3	7	·	-8%[15.4 µM]
O=C(/C=C/c1ccc(Br)cc1)NC1CCCCCC1
    6%	0%	1.8	-13	26	0.3%	9%
COc1ccc(CNC(=O)C(C)n2nc(C)n3c(cc4occc43)c2=O)cc1 (configuration not stated)
    2%	18%	·	?	16	-7.7%	17%
Cc1ccc(C)c(OCCCN2CCNCC2)c1
    4%	-6%	-3.0	14	0	1.8%	-1%
CCO/C=C1/C(=O)N(c2ccccc2OC)C(=O)c2ccccc21
    -12%	-4%	-0.1	-3	50	·	13%[15.4 µM]
COCCNC(=O)c1onc(CSc2cccc(C)c2)c1C(=O)O
    -1%	21%	33[activator]	10	-1	-0.4%	6%
C1=CCN(Cc2ccccc2)C1
    1%	18%	-3.3	7	-9	0.3%	·
COc1ccc(CCNC(=O)c2ccccc2NC(=O)C2=C(C)OCCS2)cc1OC
    3%	12%	·	-10	4	-8.4%	-7%

Continuation:
Results follow in this order: gsp antagonist	Sfp inh	Menin MLL FP FL	TRPV1 potentiator	TRPML1 inh	ClpP mod	gsp agonist
COc1ccc(Cl)cc1NC(=O)Nc1cnccn1
    -1%	-1%	3.5	4	-1	-0.9%	4%
CCCC(=O)Nc1ccc(-c2nc3cc(C)ccc3o2)cc1
    -2%	-5%	3.0	2	-14	40µM*	-1%
Nc1ccccc1SCc1ccccc1Cl
    5%	20µM*	2.6	?	20	1.0%	8%[15.4 µM]
CC(=O)NCC1CCCN(Cc2cn(-c3ccccc3F)nc2-c2cc(C)sc2C)C1 (configuration not stated)
    3%	0%	-2.5	-15	24	1.6%	-14%
C[C@@H]1CCC[C@]2(O[C@H](CCO)C[C@@H](O)[C@@H]2O)O1
    -5%	·	·	·	-2	-0.6%	11%
Cc1nc(CC(=O)Nc2nc(C(C)(C)C)cs2)cs1
    -5%	-1%	0.2	6	2	-1.3%	-25%
O=C(Nc1ccccc1Oc1ccccc1)C1CC1
    13%	10%	-0.4	-12	-10	?	?
CCOC(=O)C(C)/C(C)=N\Nc1ccc([N+](=O)[O-])cc1[N+](=O)[O-] (configuration not stated)
    ?	-19%	-2.9	8	12	·	21%
CC(=O)N1CCn2c3ccc(C)cc3c3cccc1c32
    -4%	-11%	-1.4	-11	33	-2.3%	1%
O=c1c2ccccc2[nH]c(=S)n1Cc1ccc2c(c1)OCO2
    20%	-3%	11	16	-2	·	-6%[15.4 µM]
CCCC1CC(=O)NC1(C(=O)OCC)C(=O)OCC (configuration not stated)
    9%	·	·	·	8	0.1%	-3%[15.4 µM]
CC(NC(=O)C1CCN(c2nnc(-n3cccc3)s2)CC1)C12CC3CC(CC(C3)C1)C2 (configuration not stated)
    -4%	10%	3.0	0	18	-1.2%	13%
Cc1cc(C)nc(-n2nc(C)c(C3(O)C(=O)Nc4ccc(F)cc43)c2N)n1 (configuration not stated)
    9%	14%	0.0	-21	-14	-2.1%	-21%
Cc1cccc(NS(=O)(=O)c2ccc(NC(=O)N3CCCCC3)cc2)c1
    23%	15%	-6.2	-20	2	1.8%	21%
Cc1ccc(CNS(=O)(=O)c2ccc3c(c2)NC(=O)CO3)cc1
    11%	19%	0.0	0	13	-0.2%	4%
N/C(=N\OC(=O)c1ccc2c(c1)OCO2)c1ccc(Br)cc1
    3%	7%	-3.0	-24	0	·	22%
C=CC(=O)Nc1cccc(Oc2ncnc3[nH]cc(-c4cnc5ccccc5c4)c23)c1
    -3%	·	·	·	-21	-23%	4%
Cc1ccccc1C(=O)N1CCC(C(=O)OCc2ccccn2)CC1
    -5%	·	·	·	11	-18%	-4%[15.4 µM]
Cc1cc(C(=O)N2CCN(c3ccc(F)cc3)CC2)on1
    5%	1%	-1.4	-35	0	-1.8%	-55%[inhibitor]
CCOc1ccccc1N(CC(=O)Nc1ccc(S(=O)(=O)N2CCOCC2)cc1)S(=O)(=O)c1ccccc1
    ?	?	4.6	-17	8	-3.1%	-3%
COc1cc(/C=C/CNC[C@H]2O[C@@H](n3cc(C)c(=O)[nH]c3=O)C[C@@H]2O)ccc1O
    ·	·	·	·	-8	-11%	28%
O=C(CN1CCOCC1)N/N=C/C(Br)=C\c1ccccc1
    3%	12%	2.3	-8	4	-0.3%	16%[15.4 µM]

Individual results from the list:
For gsp antagonist, CCCC(=O)Nc1ccc(-c2nc3cc(C)ccc3o2)cc1 shows -2%
For TRPV1 potentiator, Cc1cccc(NS(=O)(=O)c2ccc(NC(=O)N3CCCCC3)cc2)c1 shows -20

Among those listed so far, these contain two or more sulfur atoms:
Results follow in this order: gsp antagonist	Sfp inh	Menin MLL FP FL	TRPV1 potentiator	TRPML1 inh	ClpP mod	gsp agonist
Cc1nc(CC(=O)Nc2nc(C(C)(C)C)cs2)cs1
    -5%	-1%	0.2	6	2	-1.3%	-25%
CCOc1ccccc1N(CC(=O)Nc1ccc(S(=O)(=O)N2CCOCC2)cc1)S(=O)(=O)c1ccccc1
    ?	?	4.6	-17	8	-3.1%	-3%

Looked up one by one from above (6):
Results follow in this order: gsp antagonist	Sfp inh	Menin MLL FP FL	TRPV1 potentiator	TRPML1 inh	ClpP mod	gsp agonist
COCCn1c(=O)[nH]c2cc(C(=O)Nc3cc(OC)c(OC)c(OC)c3)ccc2c1=O
    2%	8%	-4.3	4	0	·	-5%
COCCNC(=O)c1onc(CSc2cccc(C)c2)c1C(=O)O
    -1%	21%	33[activator]	10	-1	-0.4%	6%
CCCCn1c(/N=C/c2ccc(N(C)C)cc2)nc2ccccc21
    6%	-10%	?	5	13	0.3%	-4%
Cc1c(C(=O)NCCCN2CCOCC2)sc2ncnc(N3CCN(c4ccccc4)CC3)c12
    -3%	12%	-0.4	6	33	-2.6%	20%
CCCC(=O)Nc1ccc(-c2nc3cc(C)ccc3o2)cc1
    -2%	-5%	3.0	2	-14	40µM*	-1%
C[C@@H]1CCC[C@]2(O[C@H](CCO)C[C@@H](O)[C@@H]2O)O1
    -5%	·	·	·	-2	-0.6%	11%
